# Mtb hypoxia inh: PubChem AID 1159583; M. tuberculosis hypoxia-regulated fluorescent reporter, fluorescence; fluorescence inhibition, % (concentration not given with the values); 0.1% of 300,000 active;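 active means 35 to 45% if threefold the growth effect, above 45% if 1.5-fold the growth effect; inactive means the rest, general growth blockers included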;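 further: wells of about 50 µL received 100 nL stock; 0% = vehicle wells and 100% = reference inhibitor wells; whole bacteria with a GFP reporter of the hypoxia response; strong numbers were not always called active; many hits fall short of the cut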
# ugtP null kill: growth inhibition of ugtP-null S. aureus, primary screen, RN4220 ugtP deletion, OD600; 16 h; some inactives read as strong as hits; growth inhibition, % (concentration not given with the values); 0.54% of 330,000 active; AID 1259309, 2017;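 active means z-score under -3 and OD600 up to 0.15 on both plates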;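 further: plate controls were untreated wells for no effect and antibiotic for full effect; wells of about 80 µL received 100 nL stock; the first replicate is given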
# PrP 5UTR inh: inhibition of PrP 5' UTR reporter expression | cell-based PrP 5' UTR mRNA reporter, plate reader | 0.35% of 340,000 active | inhibition, % (concentration not given with the values) | AID 488862, 2010;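 active means every replicate at 50% or more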;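 further: 0 = median of the neutral control wells; tested in H4 reporter cells; numbers are from one replicate; inactives centre near -14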
# Bead autofluor: flagged as autofluorescent in microsphere protease counterscreen. compound autofluorescence counterscreen, microsphere flow cytometry; hits give high values. fluorescence intensity (test concentration not listed). 3.1% of 360,000 active;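 active means at least 3 SD above the mean of all compounds, about 16000 in these data; inconclusive means too few beads counted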;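 further: 100 nL of 1 mM stock went into each well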
# BJeLR viability: MLPCN primary cell-based screen for lethality selective to Ras in HRASV12 cells; 0.17% of 300,000 active; inhibition, % (test concentration not listed); AID 1554, 2009; BJeLR (HRASV12) viability, CellTiter-Glo ATP luminescence, 48 h; reference of the scale not given here;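 active means replicate mean above 50%; inconclusive means above 50% but judged a plate artefact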;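 further: 50 nL library stock added to about 25 µL; numbers are from one replicate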
# Sa RN4220 lethal: growth inhibition of S. aureus RN4220, primary screen, OD600. 16 h. inhibition, % (test concentration not listed). 0.33% of 330,000 active. AID 1259311, 2017;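 active means z-score of -3 or lower and OD600 up to 0.18 on both plates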;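 further: plate controls were untreated cells for no effect and reference antibiotic for full effect; stock transfer was 100 nL into about 80 µL; one replicate is shown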
# Mtb hypoxia inh growth: second read-out of Mtb hypoxia inh, no call of its own (marks repeat the call); growth inhibition, %; measured here: M. tuberculosis growth (absorbance);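 0% = vehicle and 100% = reference antibiotic; read after six days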
# The depositor's hits bear a star; ? = inconclusive; · = no result given.
SMILES	Mtb hypoxia inh	Mtb hypoxia inh growth	ugtP null kill	PrP 5UTR inh	Bead autofluor	BJeLR viability	Sa RN4220 lethal
CN(CCCNC(=O)c1nn(C)c2c1CS(=O)(=O)c1ccccc1-2)Cc1ccccc1	7.6	6.2	12.7	-11.1	5033	1.8	1.1
O=C(NN=Cc1ccc2c(c1)OCO2)c1ccc(NC(=O)c2ccc(F)cc2)cc1	3.9	3.6	0.5	·	·	·	-1.1
COc1cc(Cl)c(S(=O)(=O)n2cnc(C)c2)cc1Cl	4.2	13.1	-1.5	-17.1	9095	0.1	0.3
Cc1cc(C)c2c(N)c(C(=O)NN=Cc3ccccc3)sc2n1	-4.6	7.3	-3.0	·	·	·	2.5
Cc1ccc(OCC(=O)N2CCN(C(=O)c3cccs3)CC2)cc1	15.2	12.7	0.9	-14.5	2963	-11.3	5.0
CN1CCN(S(=O)(=O)c2cc([N+](=O)[O-])ccc2Cl)CC1	3.4	7.2	12.4	-18.6	4006	-3.5	8.4
CCOC(=O)Cn1c(=NC(=O)C(C)(C)C)sc2cc([N+](=O)[O-])ccc21	16.4	8.8	-2.1	-27.8	2198	1.4	1.7
CCOc1cc(C(=S)N2CCOCC2)ccc1OS(=O)(=O)c1ccccc1[N+](=O)[O-]	0.5	-3.3	1.3	-13.1	2069	-10.9	6.1
Cn1c(SCc2cccc(Br)c2)nnc1-c1ccncc1	11.6	2.5	5.5	-16.1	3470	-2.7	3.0
COc1ccc(-c2cc(C(=O)O)c3c(C)nn(-c4ccccn4)c3n2)cc1	·	·	-7.3	·	·	-4.1	-0.3
COc1ccc(-c2cc3ccccc3n2CC(O)CNCCO)cc1 (stereo not given)	-3.0	9.4	-12.6	-5.2	3214	3.0	-8.0
CCCC(=O)N1CCN(S(=O)(=O)c2cc(Cl)ccc2OC)CC1	·	·	2.6	-7.6	2679	8.3	5.9
COC(=O)c1ccccc1NC(=O)COC(=O)CSCC(=O)N1CCOCC1	2.1	9.4	3.2	-27.1	23481*	-1.4	6.0
O=C(COC(=O)c1cnc(Cl)c(Cl)c1)c1ccc(F)cc1	-6.1	4.4	7.9	-8.2	4957	·	6.4
CN(C)c1cc[n+](CC(=O)Nc2ccc(Cl)c([N+](=O)[O-])c2)cc1	5.3	4.0	-0.7	-21.6	3638	-1.9	0.4
Cc1ccc(C=N/N=C2/NC(=O)CS2)o1	2.2	9.0	1.6	·	·	·	5.0
CCc1ccc2nc(Nc3nc(COC)cc(=O)[nH]3)nc(C)c2c1	8.7	5.3	4.1	-4.6	10975	-3.7	5.5
O=C(NCc1nc(-c2ccccc2)no1)c1ccc2c(c1)OCO2	2.5	-2.5	17.7	-5.1	7977	1.1	4.8
O=C(COC(=O)c1cc(S(=O)(=O)N2CCOCC2)ccc1F)c1ccccc1	11.2	12.7	10.2	-12.3	3525	·	6.1
CCOc1ccc(Br)cc1S(=O)(=O)NCc1ccc(S(N)(=O)=O)cc1	3.9	-9.1	-1.0	-10.3	4221	17.9	5.4
COc1cc(NS(=O)(=O)c2ccc(NC(=S)NC(=O)/C=C/c3ccco3)cc2)ncn1	5.4	7.3	44.9	-19.9	2494	5.6	5.7
O=C(CSc1nnc(-c2cccs2)o1)N1CCOCC1	5.2	2.7	-2.2	-24.0	13587	6.1	3.1
CCc1nn(CC(=O)N2CCC3(CC2)OCCO3)c(=O)c2cccn12	-0.5	-4.6	5.3	-3.0	4348	-3.3	3.1
O=C1NCCCc2c1oc1cc(Br)c(O)c(Br)c21	7.1	12.2	-3.2	-11.9	10213	5.4	-6.4
CCCc1cc(C(=O)N(C)CC(=O)Nc2ccc(OCC)c(OCC)c2)sc1C	1.2	-2.5	15.6	-16.1	3808	3.2	4.3
O=C(NCc1nc(-c2ccccc2)no1)c1cccs1	11.4	4.6	2.5	-5.3	9851	0.1	-0.7
COc1ccc(-c2cn3cccnc3n2)cc1NC(=O)c1cc(OC)c(OC)c(OC)c1	4.0	10.3	11.1	-15.2	3399	-7.9	3.7
O=C(O)c1ccc(NN=Cc2cccc(C(F)(F)F)c2)cc1	3.8	-3.5	15.9	·	·	·	-1.2
CN1CCN(NS(=O)(=O)c2ccc(Cl)cc2)CC1	-4.2	-3.3	0.7	-12.5	6387	-4.9	2.7
O=c1ncn(C2CCCCC2)c(=O)[nH]1	16.4	6.1	13.2	-2.9	2849	·	4.0

# Other structures.
SMILES	Mtb hypoxia inh	Mtb hypoxia inh growth	ugtP null kill	PrP 5UTR inh	Bead autofluor	BJeLR viability	Sa RN4220 lethal
Oc1cccc2c(-c3nn[nH]n3)ccnc12	5.9	4.9	0.5	-15.7	3658	·	2.7
Cc1cccc(C(C)C)c1NC(=O)c1cccnc1	8.4	9.3	0.5	-10.4	4151	-0.1	-3.1
CCN(CC(=O)Nc1cc(C)nn1-c1nc(C)cc(C)n1)Cc1ccccc1	-2.9	-3.4	-3.4	-4.4	4338	-4.5	-1.7
COC(=O)C1=CN(c2ccc(F)cc2)C=C(C(=O)OC)C1c1ccc(O)cc1	-0.5	7.5	0.8	-3.8	3179	-22.1	4.7
CC(C)(C)OC(=O)N/N=C/c1cc(N=Nc2ccccc2)ccc1O	·	·	·	-12.1	2547	-3.2	·
Cc1cc(Cl)ccc1OCC(=O)OCC(=O)Nc1cccnc1Cl	-2.0	6.7	0.2	2.7	4035	·	1.6
Cc1nn(-c2ccccc2)c(C)c1C=Nn1c(-c2ccccc2Br)n[nH]c1=S	-12.7	-13.6	-0.2	·	·	·	3.5
CC1CCc2nn(CC(=O)N3CCc4ccccc43)cc2C1 (stereo not given)	·	·	4.3	-29.3	6302	-1.1	-2.4
Cc1cccc(OCC(=O)OCC(=O)Nc2ccc(Cl)cn2)c1	-6.4	1.5	4.1	-12.6	3643	·	4.7
COc1cc(OC)c(C2N(c3ccccn3)C(=O)C3CCCN32)cc1OC (stereo not given)	9.3	4.3	4.1	-7.0	9751	-19.3	5.9
CCOc1c([N+](=O)[O-])cc2c(C)c(C(=O)N3CCN(C)CC3)oc2c1OCC	16.4	2.3	-1.2	13.1	3794	-10.5	2.5
O=c1oc(-c2ccc(Cl)c(Cl)c2)nn1-c1ccc(C(F)(F)F)cn1	-2.8	-4.5	5.0	·	5561	-4.4	4.3
COc1ccc(N(CC(=O)N2CCc3ccccc3C2)S(C)(=O)=O)cc1	11.1	2.4	2.5	-33.5	5801	5.5	2.9
CCC(C)(C)NC(=O)CN(C(=O)c1snc(C(N)=O)c1N)c1ccc(OC)c(OC)c1	5.3	5.5	7.4	-17.8	3635	·	4.1
COc1ccccc1NC(=O)CSc1nnc(CNC(=O)COc2ccc(Cl)cc2)o1	·	·	5.0	-20.5	4272	3.4	-5.2
O=C(O)c1cc(S(=O)(=O)N(Cc2ccccc2)c2ccccc2)ccc1Cl	-10.7	-0.6	4.3	-9.1	3651	3.0	10.7
O=S(=O)(NCc1ccccc1Br)c1ccccc1Br	16.7	13.7	15.8	-8.2	4053	·	17.5
COC(=O)c1sccc1NC(=O)CC1C(=O)NCCN1C(=O)Nc1cc(Cl)ccc1OC (stereo not given)	2.8	0.7	7.4	·	5166	15.9	5.0
Cc1ccc(C(=O)CSc2nnc(-c3ccccc3)o2)cc1	10.1	4.1	-19.3	-33.8	9423	-2.6	4.5
CN1CCc2c(sc3c2c(=O)n(-c2ccccc2)c2nnc(SCc4ccc(Cl)cc4)n32)C1	11.1	15.0	-6.8	-8.0	3201	-2.1	-6.7
COc1cccc(CNc2ccc([N+](=O)[O-])c(NCC(=O)O)n2)c1	3.6	2.1	4.5	-21.8	4751	1.1	5.0
Cc1noc(C)c1S(=O)(=O)N1CCCC(C(=O)NCCc2ccc(Cl)cc2)C1 (stereo not given)	·	·	-10.3	-21.2	3100	6.2	-0.6
CNc1nc(N)c([N+](=O)[O-])c(NC2CCCCC2)n1	13.5	8.0	4.4	-4.3	3464	0.5	-2.0
Cc1cccc(C)c1OCc1nnc(SCC(=O)NCCc2ccccc2)o1	17.0	15.6	1.7	7.7	23122*	4.5	3.7
Cc1ccccc1N(CC(=O)NCC1CCCO1)C(=O)CCC(=O)Nc1nccs1 (stereo not given)	4.1	-3.7	4.4	-13.7	6889	-4.0	5.5
O=c1cc(CN2CCN(Cc3ccccc3)CC2)c2cc(O)ccc2o1	5.4	2.1	4.4	-18.3	3773	0.7	2.7
Cc1ccc(CN2CCN(Cc3ccccc3)CC2)cc1	4.1	12.0	12.7	-18.5	2096	0.3	-0.7
Cc1cc(N2CCOCC2)c(F)cc1C(=O)c1ccccc1	15.9	14.4	8.6	-32.1	9460	-3.1	7.4
O=C(CN1CCCCCC1)Nc1ccc(S(=O)(=O)N2CCOCC2)cc1	0.5	21.4	2.7	-4.0	3070	3.9	3.0
O=C(c1cn(Cc2ccccc2)nc1-c1ccc(Cl)cc1)N1CCN(c2ccccn2)CC1	0.7	-3.5	9.0	-0.5	2940	·	1.8

# Next part, starting with the last 3 of the part before.
SMILES	Mtb hypoxia inh	Mtb hypoxia inh growth	ugtP null kill	PrP 5UTR inh	Bead autofluor	BJeLR viability	Sa RN4220 lethal
Cc1cc(N2CCOCC2)c(F)cc1C(=O)c1ccccc1	15.9	14.4	8.6	-32.1	9460	-3.1	7.4
O=C(CN1CCCCCC1)Nc1ccc(S(=O)(=O)N2CCOCC2)cc1	0.5	21.4	2.7	-4.0	3070	3.9	3.0
O=C(c1cn(Cc2ccccc2)nc1-c1ccc(Cl)cc1)N1CCN(c2ccccn2)CC1	0.7	-3.5	9.0	-0.5	2940	·	1.8
COc1ccc2c(C)c(C(=O)N3CCN(Cc4ccccc4)CC3)oc2c1	-4.2	0.0	0.4	-7.9	3054	1.5	2.6
CCCNC(=O)C(Cc1ccc(I)cc1)NC(=O)c1ccc2ccccc2n1 (stereo not given)	1.7	1.3	9.3	-11.0	2704	·	4.0
CCOc1ccc(N2CC(C(=O)NC3CCCC3)CC2=O)cc1 (stereo not given)	-0.2	-4.8	3.7	-9.3	3662	3.6	1.0
CCCc1c(O)c2ccccc2n(-c2ccccc2)c1=O	·	·	2.5	-24.1	3524	-0.1	1.5
COc1ccc(NCC(=O)Nc2ccccc2C#N)cc1Cl	4.9	12.2	3.3	-3.9	21530*	-5.9	-0.6
CCCN1CCC(=O)N(C(CSc2ccc(C)cc2)CC(C)C)CC1 (stereo not given)	-0.3	4.5	-0.3	·	·	·	5.5
CC(C)c1nnc(SCC(=O)NCc2ccc3c(c2)OCO3)n1C	0.8	1.5	-3.4	9.3	4253	5.0	-1.6
Cc1cc2c(cc1C)CSC(c1ccccc1O)SC2	-13.2	2.2	-19.6	-24.2	?	1.5	-2.9
O=[N+]([O-])c1cccc2cn[nH]c12	-14.4	-3.4	-8.4	6.6	6206	0.8	4.3
COc1cc(Br)c(/C=C/c2ccc3cccc(O)c3n2)cc1OC	14.0	-3.3	4.2	-0.9	3515	16.3	0.5
O=S(=O)(Cc1ccccc1)N1CCN(Cc2c(F)cccc2Cl)CC1	0.2	4.4	2.7	-12.5	5772	·	3.7
Cc1cc(/C=N/NC(=O)c2cccc(N(C)C)c2)c(C)n1-c1cc(C(=O)O)cc(C(=O)O)c1	·	·	·	-9.4	1998	1.3	·
CCOc1ncccc1C(=O)Nc1c(C)n(C)n(-c2ccccc2)c1=O	7.0	6.1	9.3	-14.7	5935	-6.4	4.0
O=C(COc1cc2oc(=O)c3c(c2cc1Cl)CCC3)N1C[C@H]2C[C@@H](C1)c1cccc(=O)n1C2	·	·	4.9	-10.0	5451	4.3	4.2
COc1cc(C(=O)OCC(=O)Nc2ccc(C(C)=O)cc2)ccc1OCC(=O)N1CCOCC1	5.9	2.3	3.5	-11.7	2481	-4.5	1.7
CCOC(=O)c1c(C)oc2ccc(OCC(N)=O)cc12	1.6	-7.7	2.3	-15.5	10195	1.7	3.6
OCCNc1nc(Cl)nc(NCc2ccco2)n1	15.7	6.6	1.6	0.3	4642	-4.5	3.1
COc1ccc(NC(=O)CCC(=O)Nc2ccc3nc(N4CCOCC4)cc(C)c3c2)c(OC)c1	-1.4	2.1	6.6	-28.1	5267	-14.3	6.2

# Screens as filed in PubChem BioAssay.

# No enrichment for hits. Share with any hit: about 4%.
